VDR inh = vitamin D3 receptor (human) inhibition | Potency, µM, inactives show max response, negative = inhibition, usual class: inhibitors | hit rate 0.93% among 400,000 | VDR-SRC2-3 peptide fluorescence polarization, 2 h; active means well fitted inhibition curve with a large enough effect; inconclusive means small, poorly fitted or top-dose-only effect, or another doubt; inactive means no such curve, though single readings can be large or run the other way; further: series mostly up to about 120 µM
Target sequence (P11473 whole entry, looked up): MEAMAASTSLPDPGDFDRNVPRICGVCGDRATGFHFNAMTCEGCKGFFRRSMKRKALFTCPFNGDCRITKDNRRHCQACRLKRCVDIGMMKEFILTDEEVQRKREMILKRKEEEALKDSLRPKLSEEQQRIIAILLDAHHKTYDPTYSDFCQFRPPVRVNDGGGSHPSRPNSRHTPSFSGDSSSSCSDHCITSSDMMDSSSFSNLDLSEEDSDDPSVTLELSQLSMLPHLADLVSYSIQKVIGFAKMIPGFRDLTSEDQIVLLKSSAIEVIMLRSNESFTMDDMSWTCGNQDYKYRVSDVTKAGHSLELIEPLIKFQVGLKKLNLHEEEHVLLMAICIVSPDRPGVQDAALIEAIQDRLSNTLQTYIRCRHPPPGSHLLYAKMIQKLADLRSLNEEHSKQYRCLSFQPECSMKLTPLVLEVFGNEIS
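Fluorescence polarization assay measuring small-molecule disruption of VDR binding to the coregulator peptide SRC2-3. Compounds were pin-transferred (23 nl) into the reagent mix and incubated 2 h at room temperature before reading.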
Starred values were filed as active, the others as inactive; ? = inconclusive; & = joins results of further samples. On the % scale 0 is the no-effect control and ±100 the full control effect; potency means the concentration at half of the fitted maximal effect. An excerpt; count on the stated rates, not on these rows.

mol	VDR inh
CCc1noc(C)c1C(=O)Nc1ccccc1N1CCOCC1	13.5%
Cc1cc(CNC(=O)c2ccc3c(c2)OCO3)c2ccccc2n1	2.5%
CCCCN(C(=O)c1ccc(S(=O)(=O)N2CCOCC2)cc1)C1CCS(=O)(=O)C1 (centres undefined)	-6.3%
COc1ccc(NC(=O)Nc2ccc(C(=O)N3CCOCC3)cc2)cc1	7.0%
ClCc1c2ccccc2cc2ccccc12	-2.3%
COCCN(C(=S)Nc1ccc(C(C)C)cc1)C(C)c1cccs1 (centres undefined)	-13.3%
COc1ccc(C)cc1N(C(=O)CNC(=O)c1ccco1)C(C(=O)NC1CCCC1)c1cccnc1 (centres undefined)	-11.7%
COc1cc(CNn2cnnc2)ccc1OCC(=O)NC(C)(C)C	0.4%
Cc1ccc(C(=O)OCC(=O)NC(C)c2ccccc2)s1 (centres undefined)	-5.3%
Cc1ccc(S(=O)(=O)NCCC(=O)N2CCC(Cc3ccccc3)CC2)cc1	-2.3%
COc1ccc(C/C(N)=N/OC(=O)CCc2ccccc2)cc1	16.0%
O=S(=O)(c1ccc(F)cc1)c1nc(-c2ccco2)oc1Nc1ccc(F)cc1	3.5%
CCOC(=O)c1ccccc1NC(=O)c1cccc(F)c1	-8.0%
O=C1C2=C(CCCC2)C(=O)N1c1cccc(OCCBr)c1	-16.2%
Cc1nc(NS(=O)(=O)c2ccc(Cl)s2)c2c3c(sc2n1)CCCC3	-4.3%
CCCCCCCC[n+]1cccc(C(=O)N(CC)CC)c1	4.3%
CNC(=O)c1sc2ncccc2c1-n1cccc1	5.6%
O=C1CCCc2ccccc2N1Cc1ccc(Cl)cc1Cl	4.3%
COc1cc(NC(=S)NCCC(c2ccccc2)c2ccccc2)c(OC)cc1Cl	-4.7%
O=C(O)C1CCCN(C(=O)NCc2ccccc2)C1 (centres undefined)	1.8%
Cc1cc(C(=O)Nc2cccc(O)c2)c(C)o1	26.4%
CC(C)NC(=O)NC(=O)COc1ncnc2sccc12	?
CCOC(=O)Cn1c(=O)oc2cc(S(=O)(=O)N3CCN(c4cccc(C)c4C)CC3)ccc21	-2.3%
O=C(Cc1c(F)cccc1Cl)Nc1nc2ccccc2s1	-9.2%
Fc1ccc2nc(N3CCCCC3)sc2c1	-11.9%
COc1ccc(CNC(=O)COc2ccc(S(=O)(=O)NC(C)C)cc2)cc1	4.4%
CCCCC(=O)Nc1ccc(N2CCCC2)cc1	?
CCCCC(=O)Nc1ccc(C(=O)NCCCn2ccnc2)cc1	-5.9%
Cc1ccc(S(=O)(=O)Nc2ccc(NC(=O)CN3CCCCC3)cc2)cc1	8.9%
COCCC1CCCCN1C(=O)c1ccc2nc(Cc3ccccc3F)oc2c1 (centres undefined)	-1.2%

Fetched by compound from the entries so far:
mol	VDR inh
COc1ccc(C/C(N)=N/OC(=O)CCc2ccccc2)cc1	16.0%
CCCCN(C(=O)c1ccc(S(=O)(=O)N2CCOCC2)cc1)C1CCS(=O)(=O)C1 (centres undefined)	-6.3%

Additional compounds
mol	VDR inh
Cc1nn(CC(=O)OCCOc2ccc(Br)cc2)c(C)c1[N+](=O)[O-]	-17.5%
CC1CCCN(C(=O)c2ccc3c(c2)OCO3)C1 (centres undefined)	23.7%
Cc1cc(C(F)F)n2nc(C(=O)Nc3sc4c(c3C#N)CCC4)nc2n1	-8.0%
CC1CCCC(C)N1c1nnc(N)s1 (centres undefined)	-4.3%
Cc1cccc(NC(=O)CN2CCN(C(=O)CNC(=O)Cc3cccc4ccccc34)CC2)c1C	-12.0%
CC1CN(c2c(F)c(N)c3c(=O)c(C(=O)O)cn(C4CC4)c3c2F)CC(C)N1 (centres undefined)	6.8%
CCOc1cc(C(=S)N2CCN(C)CC2)ccc1OCC(=O)N1CCCC1	0.1%
N#C/C(=C(/O)COC(=O)Cc1c[nH]c2ccccc12)c1nc2ccccc2[nH]1	2.7%
CC(=O)Oc1cc2c(cc1Cl)C1(CC(c3ccccc3Cl)O2)CC(C)(C)NC(=S)N1 (centres undefined)	-16.7%
Cc1ccc(S(=O)(=O)NCCC(=O)Nc2nccs2)cc1	-17.0%
O=C(NCC1CCCO1)/C(=C\c1ccco1)NC(=O)c1ccccc1 (centres undefined)	-2.3%
CC1CCCN(CCCOc2ccc([N+](=O)[O-])cc2)C1 (centres undefined)	-10.2%
O=C(N/N=C/c1cccc2ccccc12)c1ccccc1Cl	-2.2%
CCSc1ccc(/C(N)=N/OC(=O)c2cccs2)cn1	16.1%
COC(=O)c1cc(C)sc1NC(=O)c1cccnc1	-1.0%
CCCCn1c(-c2cc(Cl)ccc2OC)n[nH]c1=S	7.0%
Cc1ccc2c(c1)c(=O)c(C(=O)c1ccncc1)cn2CC(=O)Nc1ccccc1Cl	8.4%
CC1Cc2ccccc2N1C(=O)CSc1nnc(-c2ccc(S(=O)(=O)N3CCOCC3)cc2)n1C (centres undefined)	-10.4%
O=C(NCc1csc(-c2cccs2)n1)Nc1ccc(C(F)(F)F)cc1	-1.8%
O=C(CSc1nnc2n1CCCN2)c1ccccc1	-2.1%
O=C(c1ccco1)N1CCN(C(=O)C(Sc2ccccc2)c2ccccc2)CC1 (centres undefined)	-13.3%
CCCNC(=O)COc1ccc(-c2nn(C)c(=O)c3ccccc23)cc1	-6.2%
CCOC(=O)C1CCCN(S(=O)(=O)c2ccc3ccccc3c2)C1 (centres undefined)	2.0%
C/C(N)=C(/C#N)C(=O)CSc1nnc(Nc2ccccc2C)s1	-2.4%
COC(=O)CCC(=O)OC1(C)C(=O)C=C2C=C(C3CC3)N(Cc3ccccc3)C=C2C1=O (centres undefined)	-4.3%
Cc1cc(C(=O)COC(=O)C23CC4CC(CC(O)(C4)C2)C3)c(C)n1C	-8.9%
Cc1nn(-c2ccccc2)c(N)c1C(O)(C(F)(F)F)C(F)(F)F	-15.3%
CSc1nc(Cl)c(Cc2ccc(OC(C)C)cc2)c(N(C)C)n1	-5.4%
CN(C)C(=O)CCc1ccc2c3c([nH]c2c1)[C@]1(C)[C@@H](C(=O)N2CCCCC2)C[C@H](CC(=O)NCc2cccc(C(F)(F)F)c2)C(=O)N1CC3	-7.2%
CCCCNC(=O)CN1C(=O)c2c(c3ccccc3n2C)C1c1ccc(OC)cc1 (centres undefined)	12.6%

Filtered by structure, the entries above containing bromine.
mol	VDR inh
O=C1C2=C(CCCC2)C(=O)N1c1cccc(OCCBr)c1	-16.2%
Cc1nn(CC(=O)OCCOc2ccc(Br)cc2)c(C)c1[N+](=O)[O-]	-17.5%

(further entries)
mol	VDR inh
Cc1cc(NC(=O)COc2cccc([N+](=O)[O-])c2)no1	16.8%
O=C(N/N=C/c1ccccn1)c1ccc(Cl)cc1	-1.3%
Cc1cnc(C(=O)Nc2ccc(N3CCOCC3)cc2)cn1	5.6%
Cc1nn(Cc2ccccc2)c(N)c1C#N	-6.9%
COc1cc(NC(=S)NCc2cccnc2)cc(OC)c1	11.5%
CCc1ccc(N2CC34C=CC(O3)C(C(=O)OC)C4C2=O)cc1 (centres undefined)	-4.1%
COc1ccc(NC(=O)C2CCC(CNc3c(N4CCC(C)CC4)c(=O)c3=O)CC2)cc1OC (centres undefined)	-2.4%&-3.2%
CC(=O)c1ccc(NC(=O)CSc2nc(=O)n(Cc3ccncc3)c3c2CCC3)cc1	3.5%
O=C(NCC1CCCO1)Nc1ccc(Cl)cc1 (centres undefined)	-9.9%
O=S(=O)(Nc1ccc(N2CCCCC2)cc1)c1ccc(F)cc1F	-11.5%
O=C(Nc1ccc(F)cc1)c1ccc(S(=O)(=O)N2CCCC2)cc1	?
CCCn1c(SCC(=O)NC2CC2)nnc1-c1cccs1	-7.9%
COc1ccc(C(=O)Nc2cc([N+](=O)[O-])ccc2N2CCN(C)CC2)cc1	2.4%
O=C(NNC(=O)c1ccc(NC(=O)c2ccccc2)cc1)c1ccccc1	6.6%
O=S(=O)(Nc1nccs1)c1cnc(Cl)c(Br)c1	-4.0%
COc1cc(/C=N/NC(=O)C23CC4CC(CC(C4)C2)C3)cc(Br)c1O	-9.9%
CC(C)(C)C(=O)NNC(=O)c1cc2sccc2s1	0.8%
COc1ccc(N2CCN(C(=O)[C@@H](NC(=O)c3ccccc3Cl)C(C)C)CC2)cc1	23.4%
COc1ccc(CNC(=O)CC2C[C@H](C(=O)N(C(C)C)C(C)C)[C@@]3(C)c4[nH]c5ccccc5c4CCN3C2=O)cc1OC (some centres undefined)	-3.4%
c1ccc(Nc2cc(-c3ccoc3)ncn2)cc1	11.2µM*
CCOC(=O)C1=CN(C(=O)OC(C)(C)C)C(CN2C(=O)COCC2=O)C1 (centres undefined)	?
CCCCCCc1ccc(OCC(=O)O)cc1OCC(=O)O	-12.7%
O=C1NCCN(CC2CCN(CC3CCCC3)CC2)C1=O	-0.7%
COc1ccc(S(=O)(=O)N(C)CC(=O)Nc2ccc3c(c2)OCO3)cc1OC	10.4%
O=C(NCCN1CCCCC1)/C(=N\O)c1ccccc1	1.5%
COc1cc2c(cc1OC)C(COc1ccc([N+](=O)[O-])cc1)NCC2 (centres undefined)	8.1%
Cc1ccc(S(=O)(=O)N/N=C/c2cnn(C)c2C)cc1	-11.9%
Cc1ccc(NC(=O)COCC(=O)Nc2ccc(C)cc2)cc1	-11.1%
COc1ccc(CCNC(=O)c2nn(C)cc2Cl)cc1	-1.8%
O=C(CSc1nnc(-c2cccnc2)n1Cc1ccco1)c1ccc(Cl)cc1	-7.2%

More structures:
mol	VDR inh
CCOC(=O)NC(=O)/C(C#N)=N/Nc1c(F)cccc1F	10.4%
COc1ccc(CC(=O)NCCS(=O)(=O)N2CCN(c3ccccc3OC)CC2)cc1	3.3%
Cc1cccc(C)c1NC(=O)CCCSc1nnc(-c2ccc(Cl)cc2)n1-c1ccccc1	-13.3%
CCCCCOc1ccc(N2C(=O)C3C4C=CC(C3C2=O)N(C)C4=O)cc1 (centres undefined)	4.5%
CCc1ccc(C2=C(C)C(N3CCC(C(=O)NCc4ccc(C)o4)CC3)=NS2(=O)=O)cc1	8.3%
CCOC(=O)c1c(-c2ccccc2)oc2ccc(OC)cc12	0.0%
Cc1ccc(C(CNC(=O)Nc2ccccc2)N2CCN(C)CC2)cc1 (centres undefined)	5.1%
Cc1c(CCC(=O)O)c(=O)n2c([nH]c3ccccc32)c1C#N	7.8%
O=c1cnc2cnc(N3CCNCC3)nc2n1CCc1ccccc1	9.0%
COc1cc(NS(=O)(=O)c2ccc(F)cc2)c(C(=O)O)cc1OC	-7.4%
CC(=O)Nc1ccc(NC(=O)CN(c2ccc([N+](=O)[O-])cc2)S(=O)(=O)c2ccccc2)cc1	-12.3%
O=C(CSc1nc2ccccc2o1)N1c2ccccc2Sc2ccccc21	-13.5%
O=C1N=C(N2CCCCC2)SC1=C1CCCC1	-18.2%
COc1ccc(CN(C)C(=O)c2ccc(NS(=O)(=O)c3ccc(F)cc3)cc2)c(OC)c1OC	12.5%
O=C(NCC1(N2CCCCC2)CCCCC1)c1ccc(NS(=O)(=O)c2ccc(F)cc2)cc1	-7.1%
Cc1ccc2c(=O)c(C(=O)c3ccc(Cl)cc3)cn(CC(=O)NC3CCCCC3)c2n1	8.2%
FC(F)(F)c1cccc(N2CCN(C(=S)NC3CCCCC3)CC2)c1	-19.5%
COc1cccc(-c2c[nH]c(=O)[nH]c2=O)c1	-0.9%
Cc1cccc(-c2cc3nc(-c4ccccc4)cc(N4CCC5(CC4)OCCO5)n3n2)c1	2.6%
CCCOc1ccc(/C=N/NC(=O)c2nnn(-c3nonc3N)c2-c2cccs2)cc1OC	-5.4%
Cc1ccc(S(=O)(=O)Cc2c(C)noc2C)cc1	-3.5%
CN1N=C(C(=O)N2CCN(c3ccc([N+](=O)[O-])cc3)CC2)CCC1=O	-0.7%
Cc1cc(OCC(=O)Nc2nnc(C3CC3)s2)ccc1[N+](=O)[O-]	2.7%
Cc1cc(Br)cc(C)c1NC(=O)c1ccc(C#N)cc1F	13.5%
NC(=O)c1ccsc1NC(=O)c1ccc(S(=O)(=O)N2CCCC2)cc1	5.7%
COc1cccc(Nc2nnc(SCC(=O)Nc3sccc3C(N)=O)s2)c1	18.1%
COc1ccccc1CN1CCc2c([nH]c3ccccc23)C1	-25.2%
CC(=O)N1CCN(c2ccc(Nc3nc(C)nc4c3oc3ccccc34)cc2)CC1	-29.5%
CCc1nc2ccccc2n1Cc1ccccc1F	-12.7%
COc1ccc(CCNC(=O)c2sc3ccccc3c2Cl)cc1OC	-15.6%
CC(C)c1ccc(S(=O)(=O)c2n[nH]n3c2nc(=O)c2ccccc23)cc1	-2.2%
CCOC(=O)c1cc2c(=O)n3cccc(C)c3nc2n(CCCOC)c1=NC(=O)c1cccnc1	-5.6%
C/C(CC(=O)NC12CC3CC(CC(C3)C1)C2)=N\NC(=O)c1ccc(F)cc1	?

4 entries from above, sorted by molecular weight, largest number first:
mol	VDR inh
O=C(Nc1ccc(F)cc1)c1ccc(S(=O)(=O)N2CCCC2)cc1	?
COc1cc2c(cc1OC)C(COc1ccc([N+](=O)[O-])cc1)NCC2 (centres undefined)	8.1%
Cc1ccc(S(=O)(=O)N/N=C/c2cnn(C)c2C)cc1	-11.9%
O=C(N/N=C/c1ccccn1)c1ccc(Cl)cc1	-1.3%
